# GIV Gai3 FP: blocks GIV peptide binding to rat Galpha-i3; 210,000 tested, 0.42% active; Galpha-i3/FITC-GIV peptide fluorescence polarization, 90 min; stronger effect = lower value; scaled: aluminum fluoride 0%, vehicle 100%; P08753; percent of control (FP), % (no concentration beside the values);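 active = replicate mean at 85% of control or lower, very high polarization wells dropped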;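 note: wells of about 15 µL received 100 nL stock; the first replicate is given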
# Target sequence (P08753 whole entry, looked up): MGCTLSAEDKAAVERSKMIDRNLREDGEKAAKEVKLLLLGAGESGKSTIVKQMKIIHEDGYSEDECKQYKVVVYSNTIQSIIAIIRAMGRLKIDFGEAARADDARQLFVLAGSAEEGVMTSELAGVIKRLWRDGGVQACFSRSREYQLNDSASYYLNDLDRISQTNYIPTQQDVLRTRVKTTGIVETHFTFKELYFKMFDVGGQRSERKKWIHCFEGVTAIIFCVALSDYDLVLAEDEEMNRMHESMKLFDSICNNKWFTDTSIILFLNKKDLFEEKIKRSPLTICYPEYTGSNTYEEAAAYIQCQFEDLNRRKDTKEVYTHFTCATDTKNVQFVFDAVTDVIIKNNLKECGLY
# Sa growth 42C: inhibitors of Staphylococcus aureus growth at 42 °C; S. aureus RN4220 growth, OD600, 20 h; stronger effect = lower value; relative growth, % (no concentration beside the values); 170,000 tested, 0.53% active; AID 720641;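 active = growth at 42 °C up to 50% and 20 or more points under that at 30 °C, or under 10% at both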;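 note: 300 nL library stock went into each well; scaled to the means of positive and negative controls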
# HCMV UL50-53 inh: inhibitors of HCMV UL50-UL53 nuclear egress complex interaction | inhibition, % (test concentration not listed) | AID 1918969 | 190,000 tested, 0.15% active | HTRF UL50-UL53 interaction, normalized percent inhibition;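 active = both replicates at 50% or more, plus weaker picks with an unusually low signal ratio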;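 note: stock transfer was 100 nL into about 20 µL; 0% = negative control wells and 100% = wells with untagged competitor protein; inactives centre near -12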
# Sa growth 42C second temp: second read-out of Sa growth 42C, no call of its own (marks repeat the call); relative growth, %; measured here: growth at 30 °C;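 optical density after 20 h as mean of two plates; 100% = untreated growth and lower means inhibition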
# Starred values were filed as active, the others as inactive; x = no result given; & = joins results of further samples. Hits appear at their usual frequency (roughly 0.83% active in at least one column).
SMILES,GIV Gai3 FP,Sa growth 42C,Sa growth 42C second temp,HCMV UL50-53 inh
COc1ccc(-c2noc(-c3cccc(NC(=O)C4CC(=O)N(c5ccccc5)C4)c3)n2)cc1 (configuration not stated),106,x,x,0
CCN(Cc1ccccc1)S(=O)(=O)c1ccc2[nH]c3c(c2c1)CCCCC3,101,80,82,x
O=C(CSc1nc2ccccc2o1)Nc1ccc(N2CCOCC2)c(Cl)c1,104,98,80,-15
COc1ccc(-c2csc(-c3nc(-c4ccc(OC)c(OC)c4)cs3)n2)cc1,103,x,x,5
CCNC(=S)N1CCn2cccc2C1c1ccccc1F (configuration not stated),101,81,80,-35
COc1ccc(C(=O)NCc2nnc(SCC(=O)Nc3ccc(C)cc3)n2-c2ccccc2)cc1,99,96,99,23
CNS(=O)(=O)c1cn(CC(=O)N(C)Cc2ccccc2)cc1S(=O)(=O)NC,102,x,x,-7
COc1ccc(Nc2ncc3c(n2)CCNC3)c(OC)c1,105,x,x,11
COc1cccc(C(Nc2ccccn2)c2oc(CO)cc(=O)c2O)c1 (configuration not stated),x,89,80,-28
CCOC(=O)c1c(S(=O)(=O)N2CCCC(C(=O)Nc3ccc(OCC)cc3)C2)c(C)n(C)c1C (configuration not stated),100,95,83,x
O=C1c2ccccc2C(=O)N1CN1CCN(Cc2ccccc2)CC1,x,95,100,-58
COc1ccc(Br)cc1CNC(=O)CCC(=O)N1CCSc2ccccc21,105,96,96,x
O=C(c1cc2nc(-c3ccco3)cc(C(F)(F)F)n2n1)N1CCSCC1,x,93,85,-25
COc1cccc(N2CCN(S(=O)(=O)c3ccc(-c4ccno4)cc3OC)CC2)c1,106,95,91,x
CC(=O)Nc1ncnc2nc[nH]c12,98,87,87,-12
O=C(NCc1cccnc1)Nc1c[nH]c2ccccc2c1=O,100,94,88,-32
Cc1occc1C(=O)Nc1ccc(C(=O)N2CCCCC2)cc1,107,111,104,-4
CN(C)Cc1ccccc1CNC(=O)c1ccc(N(C)C)cc1,x,86,89,-21
O=C1c2ccncc2C(=O)N1Cc1ccc(F)cc1,98,x,x,-1
CSc1nc(=O)n(Cc2ccccn2)c2c1CCC2,104,89,87,-22

# Ordered by the number under Sa growth 42C second temp (ascending): some entries from above
compound	Sa growth 42C second temp
O=C(CSc1nc2ccccc2o1)Nc1ccc(N2CCOCC2)c(Cl)c1	80
CN(C)Cc1ccccc1CNC(=O)c1ccc(N(C)C)cc1	89
O=C1c2ccccc2C(=O)N1CN1CCN(Cc2ccccc2)CC1	100

# More entries.
SMILES,GIV Gai3 FP,Sa growth 42C,Sa growth 42C second temp,HCMV UL50-53 inh
COc1ccc(-c2[nH]ncc2/C=C(\C#N)S(C)(=O)=O)cc1,106,84,114,-2
COc1ccc(NC(=O)c2cc3c(s2)-c2c(C)cccc2OC3)c(OC)c1,104,101,93,-35
COCCn1c(O)c(/C=N/Nc2nc(C)cc(C)n2)c(=O)[nH]c1=S,x,87,89,-15
O=C(c1ccc(NS(=O)(=O)c2ccc(Cl)s2)cc1)N1CCN(C(=O)c2cccs2)CC1,x,129,89,2
Cc1ccc(Cn2c3ccccc3n3cc(C)nc23)cc1,100,86,60,x
CC(NC(=O)c1cccnc1)C(c1ccccc1)N1CCN(C)CC1 (configuration not stated),x,87,98,-1
CC1c2cccn2CCN1C(=O)CCn1ccnc1 (configuration not stated),x,110,91,-6
Cc1ccc(NC(=O)N(C)Cc2nc3cc(C(=O)N(C)C)ccc3n2C)cc1,102,x,x,-30
COc1cc(C2Nc3ccccc3S2)cc(OC)c1OC (configuration not stated),100,98,74,-6
CCOC(=O)C1=C(CNc2ccc(OCC)cc2)NC(=O)NC1c1ccccc1 (configuration not stated),103,98,81,-19
c1cc(-c2nnc3sc(-c4csc5c4CCCC5)nn23)ccn1,106,x,x,-11
Cc1ccc(C(=O)Nc2cc3[nH]c(=O)[nH]c3cc2C)cc1,115&104,106,105,-10&-8
O=C(/C=C/c1ccco1)OC(C(=O)c1ccccc1)c1ccccc1 (configuration not stated),x,101,92,-14
CCNS(=O)(=O)c1c(C)cc(N2CCCC2=O)cc1C,100,85,86,-25
O=C(OCc1nnc(-c2ccccc2)o1)C1(c2ccc(Cl)cc2)CCCC1,x,93,86,-25
O=C(CSc1c2c(nc3ccccc13)CCC2)Nc1ccccc1F,97,115,91,-4
COc1ccc(OC)c(S(=O)(=O)Nc2cccc(-c3cn4c(n3)SCC4)c2)c1,99,101,92,-25
CC1=C(C(=O)Nc2ccccc2)C(c2cccnc2)n2ncnc2N1 (configuration not stated),106,x,x,-25
COCCNC(=O)c1nn2c(C(F)(F)F)cc(-c3ccc(OC)c(OC)c3)nc2c1Cl,93,x,x,-37
CCCn1c2ccccc2c2cnn(CC(=O)Nc3cccc(C(=O)OCC)c3)c(=O)c21,108,145,86,x

# A few values from the results shown.
# O=C(CSc1c2c(nc3ccccc13)CCC2)Nc1ccccc1F in HCMV UL50-53 inh → -4
# O=C(/C=C/c1ccco1)OC(C(=O)c1ccccc1)c1ccccc1 (configuration not stated) in Sa growth 42C → 101
# COc1ccc(OC)c(S(=O)(=O)Nc2cccc(-c3cn4c(n3)SCC4)c2)c1 in Sa growth 42C → 101
# Cc1ccc(C(=O)Nc2cc3[nH]c(=O)[nH]c3cc2C)cc1 in HCMV UL50-53 inh → -10&-8

# The listing continues.
SMILES,GIV Gai3 FP,Sa growth 42C,Sa growth 42C second temp,HCMV UL50-53 inh
Cn1c2ccccc2n2c(=O)cc(-c3ccccc3)c(C#N)c12,97,94,85,-40
COC(=O)c1cc(-c2ccc(Cl)cc2)c2c(=O)[nH]c(=O)n(C)c2n1,103,104,79,-22
CCN(CC)c1ccc(-n2nc3cc(C)c(NC(=O)c4ccccc4C)cc3n2)c(C)c1,111,114,93,-16
Cc1ccc(CS(=O)(=O)Cc2ccc(C(=O)O)o2)cc1,102,91,83,-11
O=S(=O)(NCC(c1cccs1)N1CCc2ccccc21)c1ccccc1 (configuration not stated),98,89,68,-29
CCc1cc(=O)oc2cc(OCC(=O)N3CCCc4ccccc43)ccc12,x,88,96,16
O=C(Nc1ccccc1)Oc1cccc(N2CCOCC2)c1,107,106,84,-20
Cc1cc(NCCC(C)C)n2ncc(-c3ccc(F)cc3)c2n1,96,x,x,-10
CC(C)[C@H](NC(N)=O)C(=O)Nc1ccc(Oc2ccccc2)cc1,x,97,99,-6
Cc1ccc2cccc(O)c2n1,102,72,28,-18
Cc1ccc(NC(=O)Cn2cnc3sc(C(=O)N4CCC(C)CC4)c(C)c3c2=O)cc1Cl,x,103,87,-2
O=C(CC1Nc2c3ccccc3nc(=S)n2C1=O)NCc1ccccc1 (configuration not stated),99,100,88,x
Cc1cc2nnc(SC(C)C(=O)Nc3ccccc3Cl)n2c2ccccc12 (configuration not stated),96,x,x,-10
COc1ccc(-n2nc(C(=O)NCCc3ccc(OC)c(OC)c3)c3c4ccccc4n(C)c3c2=O)cc1Cl,98,96,91,-24

# A different layout for four compounds above.
Cc1ccc(C(=O)Nc2cc3[nH]c(=O)[nH]c3cc2C)cc1
- GIV Gai3 FP: 115&104
- Sa growth 42C: 106
- Sa growth 42C second temp: 105
- HCMV UL50-53 inh: -10&-8

COc1cccc(N2CCN(S(=O)(=O)c3ccc(-c4ccno4)cc3OC)CC2)c1
- GIV Gai3 FP: 106
- Sa growth 42C: 95
- Sa growth 42C second temp: 91
- HCMV UL50-53 inh: x

CCN(CC)c1ccc(-n2nc3cc(C)c(NC(=O)c4ccccc4C)cc3n2)c(C)c1
- GIV Gai3 FP: 111
- Sa growth 42C: 114
- Sa growth 42C second temp: 93
- HCMV UL50-53 inh: -16

CC1=C(C(=O)Nc2ccccc2)C(c2cccnc2)n2ncnc2N1 (configuration not stated)
- GIV Gai3 FP: 106
- Sa growth 42C: x
- Sa growth 42C second temp: x
- HCMV UL50-53 inh: -25
